HTT prom inh – HTT promoter inhibition | HEK293 HTT promoter firefly luciferase reporter (activity 0% = vehicle and -100% = no light), 24 h | actives 0.93% (n = 48,000) | Potency, µM (highest dose often 57.5 µM), for inactives: at the top dose activity change, negative = inhibition, hits mostly inhibitors; active means well fitted inhibition curve with a large enough effect; inconclusive means small, poorly fitted or top-dose-only effect; inactive means no such curve, though single readings can be large or run the other way; further: nearly all actives have a fitted effect of over 50% in size
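HEK293 luciferase promoter-reporter cells (2,500/well) plated 24 h, then compounds added at up to 57.5 uM final for 24 h at 37 °C. Firefly luminescence by Dual-Glo, normalized to vehicle (0%) and zero RLU (-100%).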
PMP22 txn prim – modulates PMP22 transcription in S16 Schwann cells; S16 Pmp22-F2sN Schwann cells (luciferase reporters placed in the Pmp22 gene), FLuc/NLuc coincidence luminescence, 24 h; Potency, µM (highest dose often 57.5 µM), for inactives: top-dose activity change, negative = inhibition, hits mostly inhibitors; actives 2% (n = 43,000); AID 1508649; active = clear falling dose curves in both reporters; inconclusive = both reporters move, but less clearly or upward; inactive = either reporter flat; the % is the NLuc reporter signal; further: on the % scale 0 is the no-effect control and ±100 the full control effect; some results filed as inactive show a strong effect at the top dose
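S16 Schwann cells carrying FLuc/NLuc coincidence reporter in the Pmp22 3' UTR treated with compound 24 h at 37C; FLuc then NLuc luminescence read sequentially by dual-luciferase reagents.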
Numbers without * were called inactive; ? = inconclusive; · = not tested or not shown; & = joins results of further samples; [ ] = remark or other dose. Potency means the concentration at half of the fitted maximal effect.

molecule	HTT prom inh	PMP22 txn prim
O=C(Cn1cc(S(=O)(=O)Cc2ccccc2F)c2ccccc21)NCc1ccccc1	-11%	-14%
COc1ccc(OC)c(CCNC(=O)CS(=O)(=O)Cc2nc(-c3cccc(Cl)c3)oc2C)c1	-31%	?
COc1ccc(NC(=O)C(C)n2nnc3sc(-c4ccccc4)cc3c2=O)cc1Cl (stereo not given)	9%	-17%
NCCCC(N)(C(=O)O)C(F)F (stereo not given)	-8%&3%	·
COc1ccccc1-c1noc(-c2ccc(NCc3ccco3)c([N+](=O)[O-])c2)n1	49%[activator]	?
Cc1cccc(-c2nc(CCNC(=O)Cc3ccccc3)cs2)c1	?	-4%
CCc1ccccc1NC(=O)CN(c1ccccc1)S(=O)(=O)c1ccsc1C(=O)OC	-23%	-2%
Cn1cc(S(=O)(=O)N2CCCCCC2)cc1C(=O)Nc1ccccc1F	-24%	-23%
COc1ccc(C2N=C(N)Nc3nc4ccccc4n32)cc1 (stereo not given)	-18%	-29%
Cc1ccc(C)n1-c1nnc(N2CCC(C(=O)Nc3ccccc3Br)CC2)s1	-21%	?
COc1ccc(CCNC(=O)Cn2c(=O)nc(-c3ccccc3F)c3cc(Cl)ccc32)cc1OC	20%	-6%
Cn1ccc2cc(S(=O)(=O)N3CCCC(C(=O)NCc4ccc(F)cc4)C3)ccc21 (stereo not given)	-31%	-7%

The results go on:
molecule	HTT prom inh	PMP22 txn prim
CCc1ccc(NC(=O)Nc2ccccc2OCc2cc(=O)n3ccccc3n2)cc1	53%[activator]	?
Cc1ccc(S(=O)Cc2nc(-c3ccc(C(=O)NCc4cccc(C)c4)cc3)oc2C)cc1 (stereo not given)	-7%	-11%
COc1cccc(-c2nnc(SCC(=O)N3CCCCC3)o2)c1	52%[activator]	4%
Cc1cccc(NC(=O)Cn2cc(C(=O)c3ccco3)c3ccccc32)c1	-22%	?
CC(C)(C)C1CCc2nc(NC(=O)c3ccc([N+](=O)[O-])cc3)sc2C1 (stereo not given)	?	7%
COc1ccc(N2CCN(c3ncnc4c3nnn4C)CC2)cc1	-24%	?
CCOc1ccc(Cn2c(=O)oc3ccccc32)cc1	8%	-10%
O=S(=O)(NCc1ccc(Cl)cc1)c1ccc(-c2cnc(C3CC3)o2)cc1	-18%	-11%
COc1cccc(OCc2nc3ccccc3n2CCOc2cccc(C)c2)c1	-2%	?
COC(=O)c1ccc(NC(=O)N2CCN(Cc3cc(=O)n4nc(-c5ccc(C)cc5)sc4n3)CC2)cc1	-14%	-21%
CCc1ccc(C(=O)CSc2nc(-c3ccccc3)nc3c2CCCC3)cc1	-8%	-16%
CCCOc1ccc(C(=O)N(Cc2ccccc2Cl)C2CCS(=O)(=O)C2)cc1 (stereo not given)	-18%	-6%

The list continues:
molecule	HTT prom inh	PMP22 txn prim
COCCCN1CCc2nc(SCC(=O)Nc3ccc(C)c(Cl)c3)[nH]c(=O)c2C1	-11%	?
Cc1ccc(-n2c(SCC(=O)NCc3ccccc3)nc3c([nH]c4ccccc43)c2=O)cc1	-16%	-20%
Cc1ccc(-n2ncc(C(=O)N3CCN(C(=O)c4ccco4)CC3)c2C2CCN(C(=O)OC(C)(C)C)CC2)cc1	7%	-9%
Cc1cc(NC(=O)Nc2nnc(N(C)Cc3ccccc3)s2)ccc1Br	-8%	11%
CCc1ccccc1N1C(=O)N(C)c2ccccc2S1(=O)=O	-22%	22%
CCOC(=O)CCCCN(Cc1ccccc1F)S(=O)(=O)c1ccc(F)c(C(=O)Nc2cc(Cl)cc(Cl)c2)c1	-38%	?
Cc1cc(C)c(C#N)c(SCC(=O)Nc2ccccc2C#N)n1	-1%	-16%
COc1ccccc1CNC(=O)C1CCCN(S(=O)(=O)c2ccc3c(c2)oc(=O)n3C)C1 (stereo not given)	-24%	-11%
CCN(CC)CCCNC(=O)c1cn(CC)c2ccc(S(=O)(=O)N3CCC(C)CC3)cc2c1=O	-1%	-43%
Cc1ccc2c(c1)N(C(=O)N1CCC(C(=O)NC3CCCCCC3)CC1)CC(C)O2 (stereo not given)	33%[activator]	-2%
Cc1ccc(CNC(=O)c2oc3ccc(S(=O)(=O)N4CCCC(C)C4)cc3c2C)cc1 (stereo not given)	?	-23%
CCC(Oc1ccc(F)cc1)C(=O)Nc1c(C(=O)c2ccc(C)cc2)oc2ccccc12 (stereo not given)	10%	-1%

(further entries)
molecule	HTT prom inh	PMP22 txn prim
CN1CCC[C@H]1CCO[C@](C)(c1ccccc1)c1ccc(Cl)cc1	12%	·
Cc1cccc(N2CCN(c3nc4ccccc4c4nc(-c5ccccc5)nn34)CC2)c1C	-3%	-28%
COCCCNC(=O)Cn1cnc2sc(C)c(S(=O)(=O)N3CCC(C)CC3)c2c1=O	-9%	-26%
CCC(=O)N1CCc2cc(Br)cc(S(=O)(=O)NCCc3ccc(OC)c(OC)c3)c21	-6%	-6%
Cc1ccc(CNC(=O)CCC(=O)N2CC(C)Sc3ccccc32)cc1 (stereo not given)	-13%	0%
CCOC(=O)c1ccc(NC(=O)CCC(=O)N2CCSc3ccccc32)cc1	?	-15%
COc1ccc(OC(C)c2nc3ccccc3[nH]2)cc1 (stereo not given)	15%	?
COc1ccc(CC(=O)Nc2c(C(=O)Nc3ccccc3F)oc3ccccc23)cc1	-4%	?
O=C(Cn1c(=O)nc(-c2ccccc2)c2ccccc21)NCCc1ccccc1	-3%	14%
CC1=C(C(N)=O)C(c2cccc(C)c2)n2nc(-c3ccc(Cl)cc3)nc2N1 (stereo not given)	-8%	-7%
Cc1ccc(NC(=O)C2CCCN(S(=O)(=O)c3c(C)n[nH]c3C)C2)cc1Cl (stereo not given)	?	?
Cc1ccc(CNc2nccn(-c3cc(C)cc(C)c3)c2=O)cc1	?	-2%

Other compounds:
molecule	HTT prom inh	PMP22 txn prim
O=C(c1ccc2c(c1)N(Cc1ccccc1)C(=O)c1ccccc1S2(=O)=O)N1CCN(c2ccccn2)CC1	-14%	?
Cc1oc(-c2ccccc2Cl)nc1CS(=O)(=O)CC(=O)NCc1ccc(F)cc1	-30%	?
C[C@H](N)C(=O)N[C@@H](C)C(=O)NC1[C@H]2CN(c3nc4c(cc3F)c(=O)c(C(=O)O)cn4-c3ccc(F)cc3F)C[C@@H]12 (stereo not given in full)	3%	·
CCC(C(=O)Nc1cc(OC)ccc1OC)n1c(C)c2cnn(-c3ccccc3)c(=O)c2c1C (stereo not given)	-17%	?
Cn1ccc2cc(S(=O)(=O)N3CCCC(C(=O)NCc4ccccc4)C3)ccc21 (stereo not given)	0%	-1%
CCOc1ccc(CCNC(=O)c2ccc3c(c2)c(C)c(C)n3C)cc1	2%	-2%
Cc1ccccc1-n1c(SCC(=O)Nc2ccc(Cl)cc2Cl)nc(O)cc1=O	-12%	-128%
CC1=C(C(=O)Nc2ccccc2Br)C2(CCC(C)CC2)OC1=O (stereo not given)	-18%	7%
Cc1cc(C)cc(Nc2ncnc3c2nc2n3CCCC2)c1	-22%	-1%
O=C(Cn1c(=O)n(Cc2ccc(C(=O)NCc3ccccc3Cl)cc2)c(=O)c2ccccc21)Nc1ccc(F)cc1	-8%	-19%
Cc1ccc(NC(=O)c2ccc3oc(=O)c(S(=O)(=O)c4ccccc4)cc3c2)cc1C	-27%	4%
CCCS(=O)(=O)NCCc1sc2nc(-c3ccc(Cl)cc3)nn2c1C	?	5%

Brought forward from above: three entries, then new ones.
molecule	HTT prom inh	PMP22 txn prim
O=C(Cn1c(=O)n(Cc2ccc(C(=O)NCc3ccccc3Cl)cc2)c(=O)c2ccccc21)Nc1ccc(F)cc1	-8%	-19%
Cc1ccc(NC(=O)c2ccc3oc(=O)c(S(=O)(=O)c4ccccc4)cc3c2)cc1C	-27%	4%
CCCS(=O)(=O)NCCc1sc2nc(-c3ccc(Cl)cc3)nn2c1C	?	5%
CCN1CCN(CCCNC(=O)c2cnn(-c3ccccc3Cl)c2C2CCN(C(=O)OC(C)(C)C)CC2)CC1	-14%	-39%
CCc1ccccc1NC(=O)C1CCN(C(=O)N2CC(C)Oc3ccc(Cl)cc32)CC1 (stereo not given)	?	?
CN(CC(=O)Nc1cccc(Cl)c1)S(=O)(=O)c1ccc2[nH]c3c(c2c1)CCCC3	-4%	?
O=C(CN1C(=O)c2ccccc2Sc2ccc(C(=O)N3CCOCC3)cc21)Nc1ccc(Cl)cc1F	-3%	-6%
Cc1cccc(N2CCN(c3ncnc4onc(C)c34)CC2)c1C	-13%	-14%
CCOC(=O)c1c(NC(=O)C(C)Oc2ccc(Cl)c(C)c2)sc2c1CCCC2 (stereo not given)	-12%	6%
CC(C)(C)C(=O)Nc1nc2nc(-c3ccccc3)cc(=O)n2[nH]1	3%	65%
Cc1oc(-c2ccccc2F)nc1CS(=O)(=O)CC(=O)NCCc1ccc(Cl)cc1	-31%	-3%
CCOc1ccc(CCNC(=O)c2cnc3sc(N(CC)CC)nn3c2=O)cc1OCC	-4%	-51%
COc1ccc(C2=C(C)C(=NCCCN3CCN(c4cc(Cl)ccc4C)CC3)NS2(=O)=O)cc1	?	?
CC(C)CN(CCCNC(=O)CN1C(=O)COc2ccc(S(=O)(=O)N3CCCCCC3)cc21)CC(C)C	-12%	?
CCn1c(NCc2ccc(OC)cc2)nc2ccccc21	34%[activator]	4%

Compound profiles, from the list above. Order of values: HTT prom inh	PMP22 txn prim
Profile of `CCOc1ccc(Cn2c(=O)oc3ccccc32)cc1` → 8%	-10%
Profile of `Cc1ccccc1-n1c(SCC(=O)Nc2ccc(Cl)cc2Cl)nc(O)cc1=O` → -12%	-128%

Carrying on.
molecule	HTT prom inh	PMP22 txn prim
Cc1ccc(CNC(=O)CCn2ccc3cc(S(=O)(=O)N4CCCC4)ccc32)cc1	?	?
Cc1cc(C)c(S(=O)(=O)NCCc2cc3cc(C)c(C)cc3[nH]c2=O)c(C)c1	-10%	-14%
O=S(=O)(NCc1ccc(F)cc1)c1ccc(N2CCCCS2(=O)=O)cc1	?	12µM*
CCCCCn1c(=O)[nH]c2cc(C(=O)N3CCN(c4cccc(C)c4)C(C)C3)ccc2c1=O (stereo not given)	?	?
CCN(CC)c1ccc(NC(=O)CN2CCN(c3ccccc3OC)CC2)cc1	?	?
CCC(Sc1nc2c(sc3ccccc32)c(=O)n1CCc1ccccc1)C(=O)N(CC)CC (stereo not given)	-2%	-22%
Cc1cc(O)c(C(c2ccc(F)cc2)N2CCCCC2)c(=O)n1Cc1ccco1 (stereo not given)	9%	-3%
CCc1ccc(C(=O)CC2(O)C(=O)N(CCc3ccccc3)c3ccc(Cl)cc32)cc1 (stereo not given)	?	?
O=C(NC1CCN(Cc2ccccc2)CC1)c1ccc(Cn2c(=O)c3ccccc3n(Cc3ccc(Cl)cc3)c2=O)cc1	-6%	12µM*
CC(=O)c1cccc(NC(=O)N2CCC(CN3CCCCC3)CC2)c1	-8%	0%
COc1cc(C(=O)Nc2nnc(CC(C)(C)C)s2)cc(OC)c1OC	-4%	?
O=C(COc1ccc(Br)cc1Br)Nc1ccc(S(=O)(=O)Nc2ncccn2)cc1	-14%	-14%

(further entries)
molecule	HTT prom inh	PMP22 txn prim
CS(=O)(=O)N1CCc2cc(C(=O)Nc3ccc(S(N)(=O)=O)cc3)ccc21	-15%	2%
O=C(CNC(=O)c1ccc(Cl)cc1)OCc1cc(=O)n2ccsc2n1	-9%	21%
O=C(CCn1nc(-c2ccc(Cl)cc2)ccc1=O)NCCc1ccccc1	17%	-25%
COc1cc(C2Nc3ccccc3-c3nnc(SCc4ccc(Cl)cc4)nc3O2)ccc1OCC(=O)O (stereo not given)	-3%[11.5 µM]	0%
COc1cccc(NC(=O)c2csnn2)c1	29%	8%
NC(N)=NN=C(/C=C/c1ccc([N+](=O)[O-])o1)/C=C/c1ccc([N+](=O)[O-])o1	?	·
CC(C)Oc1ccc(C(=O)Nc2c(C(=O)Nc3cccc(F)c3)oc3ccccc23)cc1	5%	?
COC(=O)c1ccccc1NC(=O)CCS(=O)(=O)c1nc(-c2ccc3c(c2)OCO3)cc(C(F)(F)F)n1	6%	14µM*
Clc1cccc(-n2ncc3c(NC4CCCCCC4)ncnc32)c1	-17%	?
Nc1ccn([C@H]2CC[C@@H](CO)O2)c(=O)n1	0%&-5%	·
CCCN(CCC)CCCNC(=O)Cn1ncc2c3ccccc3n(Cc3ccccc3F)c2c1=O	43%[activator]	?
Cc1ccccc1Cc1c(C)nc2nc(SCC(=O)NC(C)c3ccccc3)nn2c1C (stereo not given)	-29%	-27%

Part of the list above, set out differently:
Below each SMILES: HTT prom inh, PMP22 txn prim
O=C(CNC(=O)c1ccc(Cl)cc1)OCc1cc(=O)n2ccsc2n1
 : -9%, 21%
COc1cc(C2Nc3ccccc3-c3nnc(SCc4ccc(Cl)cc4)nc3O2)ccc1OCC(=O)O (stereo not given)
 : -3%[11.5 µM], 0%

Screening data deposited in PubChem by National Center for Advancing Translational Sciences (NCATS).
